Assay outcomes (PubChem BioAssay)
Tau fibril FP – tau fibrillization inhibition (FP); K18 P301L tau heparin fibrillization, Alexa594 FP, 6 h; Potency, µM (doses to about 57.7 µM), for the others: at the highest dose activity, negative = inhibition, hits mostly inhibitors; 280,000 tested, 0.39% active; note: nearly all actives have a fitted effect of over 55% in size
Target sequence (P10636 561-689 P618L limits assumed): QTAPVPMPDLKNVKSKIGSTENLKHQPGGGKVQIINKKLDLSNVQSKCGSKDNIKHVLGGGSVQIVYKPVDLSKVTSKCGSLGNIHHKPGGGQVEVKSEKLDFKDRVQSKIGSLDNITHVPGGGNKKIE
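Recombinant K18 P301L […], labeled with Alexa 594 at 0.24 uM over 15 uM unlabeled; heparin inducer 20 uM final; 37 C, 6 hr; FP endpoint.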
L3MBTL1 inh – L3MBTL1 (human) inhibition; Potency, µM (series often up to 57.1 µM), inactives show top-dose activity, negative = inhibition, most hits filed as inhibitors; AlphaScreen L3MBTL1–H3K9me1 peptide binding; Q9Y468; 230,000 tested, 0.66% active; note: nearly all actives have a fitted effect of over 60% in size
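First, the protein-peptide complex forms for 30 min at room temperature (L3MBTL1 50 nM, biotinylated H3K9me1 peptide 75 nM). Next, compounds are pin-transferred and incubated 30 min. Finally, AlphaScreen beads are added and read after 30 min.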
TexasRed fluor – Texas Red fluorescence interference in TRb-SRC2 counter-screen | Potency, µM (highest dose often 106 µM), for the others: at the top dose fluorescence change, negative = quenching | TRb/SRC2 Texas Red total fluorescence interference | 280,000 tested, 0.29% active; active = well fitted curve in either direction with a large enough effect; inconclusive = small, poorly fitted or top-dose-only effect
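Human TRb ligand-binding domain at 0.6 uM with 20 nM Texas Red SRC2 peptide in Tris buffer containing 1 uM T3 and 5% DMSO, incubated with compound 5 h at ambient temperature. Total fluorescence (555/632 nm) calculated as parallel + 2 × perpendicular.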
GoLoco inh red – inhibitors of human Gai1-RGS12 GoLoco interaction (red fluorophore); P63096; Gai1:RGS12 GoLoco peptide FP, rhodamine, 10 min; Potency, µM (highest dose often 61.6 µM), without a hit: top-dose activity, negative = inhibition, hits mostly inhibitors; 230,000 tested, 0.44% active; active = well fitted inhibition curve with a large enough effect, not every such curve was filed as active; inactive = no such curve, though single readings can be large or run the other way; note: nearly all actives have a fitted effect of over 30% in size; many of its hits are not listed in these tables
RECQ1 helicase – blocks DNA unwinding by human RECQ1 | Potency, µM (top dose mostly 57.3 µM), inactives show at the top dose activity, negative = inhibition, usual class: inhibitors | P46063 | 240,000 tested, 0.54% active | RECQ1 DNA unwinding, red fluorescence kinetic read;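 note: plate controls were vehicle for no effect and no enzyme for full effect; nearly all actives have a fitted effect of over 30% in size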
Target sequence (P46063 whole entry, looked up): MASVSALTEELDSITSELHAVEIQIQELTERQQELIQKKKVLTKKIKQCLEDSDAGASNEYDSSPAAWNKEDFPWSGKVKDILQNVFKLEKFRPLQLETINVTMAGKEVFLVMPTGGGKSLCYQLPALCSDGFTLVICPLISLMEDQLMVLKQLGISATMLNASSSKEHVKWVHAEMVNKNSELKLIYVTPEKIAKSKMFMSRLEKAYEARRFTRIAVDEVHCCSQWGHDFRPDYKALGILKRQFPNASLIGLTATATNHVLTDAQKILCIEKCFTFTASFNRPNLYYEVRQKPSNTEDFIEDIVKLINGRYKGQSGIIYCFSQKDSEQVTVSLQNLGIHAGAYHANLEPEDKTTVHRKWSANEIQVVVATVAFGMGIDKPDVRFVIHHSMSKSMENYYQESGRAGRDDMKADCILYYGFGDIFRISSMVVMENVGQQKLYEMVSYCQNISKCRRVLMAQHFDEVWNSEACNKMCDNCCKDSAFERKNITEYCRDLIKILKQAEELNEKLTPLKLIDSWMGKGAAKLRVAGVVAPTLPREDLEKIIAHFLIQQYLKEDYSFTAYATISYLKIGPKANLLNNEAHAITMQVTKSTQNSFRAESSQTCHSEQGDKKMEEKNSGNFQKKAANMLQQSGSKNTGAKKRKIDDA
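RECQ1T1 50 nM; forked duplex (20 bp + 30-nt ss tails) 200 nM, ATP 2 mM final; pH 8.0, 2 mM MgCl2, 2.5 ug/ml poly(dI-dC); 15 min compound preincubation; discontinuous kinetic read over 2 h at RT.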
Tau fibril ThT – inhibitors of human tau fibril formation, thioflavin T binding. P10636. recombinant tau K18 P301L (four-repeat tau fragment), heparin-induced fibrillization, ThT fluorescence. Potency, µM (doses to about 57.4 µM), inactives show at the highest dose activity, negative = inhibition, usual class: inhibitors. 270,000 tested, 2.1% active; note: nearly all actives have a fitted effect of over 55% in size
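Aggregation was driven by heparin (20 uM final) acting on recombinant tau […] bearing P301L in 100 mM sodium acetate pH 7; fibrils were detected with Thioflavin T.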
TRb-SRC2 inh – TRbeta-SRC2 interaction inhibition; P10828; TRbeta-SRC2 peptide binding, fluorescence polarization; receptor liganded with 1 µM T3; Potency, µM (titrated, usually from 106 µM), inactives show at the top dose activity change, negative = inhibition, actives largely listed as inhibitors; 280,000 tested, 0.065% active;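 note: plate controls were bound peptide for no effect and peptide without receptor for full effect; nearly all actives have a fitted effect of over 50% in size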
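Read-out is fluorescence polarization (555 nm excitation, 632 nm emission) of a Texas Red SRC2 coactivator peptide; loss of signal reflects blocked binding to human TRb ligand-binding domain in the presence of 1 uM T3.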
* marks the source's active call; other numbers are inactive results; i = inactive; ? = inconclusive; . = no result given; [ ] = another dose, or the depositor's remark. Unless noted, calls come from the whole dose curve; as a rule, active = well fitted curve in the direction sought with a large enough effect; inconclusive = small, poorly fitted or top-dose-only effect, or another doubt; inactive = no such curve, though single readings can be large; an effect the other way counts as inactive or inconclusive. Unless noted, % is set by controls: 0 for no effect and ±100 for the full control effect; potency is the fitted concentration of half-maximal effect. An excerpt; rates above refer to the full screens.

SMILES	Tau fibril FP	L3MBTL1 inh	TexasRed fluor	GoLoco inh red	RECQ1 helicase	Tau fibril ThT	TRb-SRC2 inh
O=S(=O)(c1cccc(C(F)(F)F)c1)N1CCC(c2cc(-c3cccc4ccccc34)n[nH]2)CC1	-0.5%	-4.0%	4.0%	-3.4%	-9.8%	-0.2%	8.0%
Cc1cccc(C(=O)NNC(=O)c2ccc(Cl)cc2)c1O	0.8%	4.5%	-3.2%	2.8%	4.8%	-5.0%	-2.5%
COC(=O)c1ccc(NC(=S)N2CCN(Cc3ccccc3Cl)CC2)cc1	-10.1%	-11.2%	-0.8%	3.7%	-13.3%	-16.6%	-5.1%
Clc1ccc(-n2nnnc2-c2cnc(-c3ccncc3)nc2-c2cccs2)cc1	9.7%	-19.7%	-1.0%	2.2%	-1.5%	-14.5%	-3.7%
O=C1C2CCCN2c2ccc(S(=O)(=O)N3CCOCC3)cc2N1Cc1ccccc1F (centres undefined)	8.2%	-1.0%	0.2%	0.0%	i	-4.4%	2.3%
CN(C(=O)CSc1nnc(-c2cccs2)o1)C1CCS(=O)(=O)C1 (centres undefined)	-1.5%	1.3%	-2.1%	5.2%	-3.7%	-3.4%	-3.8%
Cc1ccc(C(OCC(O)CN2CCCCC2CO)c2ccccc2)cc1 (centres undefined)	0.9%	-4.3%	-5.4%	2.2%	i	10.8%	3.1%
O=C(CN1CC(=O)Oc2ccccc21)OCC(=O)c1ccccc1	0.2%	.	1.4%	2.5%	-10.2%	-15.3%	1.5%
Clc1ccccc1OCCN1CCC(Cc2ccccc2)CC1	-3.0%	-15.6%	0.4%	-8.5%	4.8%	-8.6%	4.4%
Cn1c(CSCCOc2ccccc2)n[nH]c1=S	-12.1%	-7.9%	-1.9%	1.6%	3.5%	-17.1%	-9.3%
COc1ccc(OCC(=O)Nc2ccc3oc(-c4ccncc4)nc3c2)cc1	14.3%	0.6%	-4.3%	23.7%	12.7%	?	-4.3%
CCCCC(CC)CNC(=O)C(=O)C1C(=O)Nc2ccccc21 (centres undefined)	0.4%	.	-0.4%	-15.4%	3.0%	-12.7%	10.1%
CCOC(=O)NC1(NCc2ccccc2)Oc2ccccc2O1	-6.8%	-6.6%	-1.8%	-3.1%	?	?	1.4%
CCCOc1ccc(-c2nc(C#N)c(N3CCc4ccccc4C3)o2)cc1	5.6%	.	1.0%	3.7%	i	?	-6.1%
O=C(CSc1ccc(-c2ccccn2)nn1)NC1CCCC1	1.4%	.	0.9%	-2.5%	-2.0%	0.7%	1.4%
COc1cc(CN2CCN(c3ccccc3C)CC2)cc([N+](=O)[O-])c1O	1.2%	-13.1%	2.2%	-6.0%	-4.6%	?	-2.9%
COc1ccccc1/C=C1\S/C(=N/NC(=O)c2cccc(Br)c2)NC1=O	1.3%	-4.1%	-8.6%	11.5%	-4.8%	12.6µM*	11.2%
C/C=C/c1ccc(OCCn2cncn2)c(OC)c1	-4.0%	-3.9%	-3.1%	-15.4%	0.5%	-10.9%	-7.3%
COc1cc(OC)cc(C(=O)N2CCN(Cc3ccccc3Br)CC2)c1	6.9%	2.7%	-4.0%	-0.5%	2.8%	-2.9%	1.0%
COC(=O)CCCC1=CC2=CC(=O)C(C)(OC(=O)c3cccs3)C(=O)C2=CN1CC1CC1 (centres undefined)	-3.9%[11.6 µM]	.	-1.0%[11.2 µM]	-8.3%[14.2 µM]	-8.0%[11.5 µM]	?	3.5%[11.2 µM]

Limited to TexasRed fluor and Tau fibril FP, for 3 of the compounds above:
| Molecule | TexasRed fluor | Tau fibril FP |
| --- | --- | --- |
| CCCCC(CC)CNC(=O)C(=O)C1C(=O)Nc2ccccc21 (centres undefined) | -0.4% | 0.4% |
| COc1ccc(OCC(=O)Nc2ccc3oc(-c4ccncc4)nc3c2)cc1 | -4.3% | 14.3% |
| Clc1ccc(-n2nnnc2-c2cnc(-c3ccncc3)nc2-c2cccs2)cc1 | -1.0% | 9.7% |

Additional entries follow:
SMILES	Tau fibril FP	L3MBTL1 inh	TexasRed fluor	GoLoco inh red	RECQ1 helicase	Tau fibril ThT	TRb-SRC2 inh
CCN(CC)CCN(C)Cc1ccc(Br)cc1	-11.8%	.	4.0%	-38.3%	i	7.1%	-17.3%
COC(=O)/C=c1\sc2ncnn2c1=O	14.1µM*	6.5%	-2.4%	-8.6%	8.2%	15.8µM*	0.3%
CCOC(=O)C1CCN(S(=O)(=O)c2cccc(-c3cn4cc(Cl)ccc4n3)c2)CC1	2.6%	.	3.4%	70.2%[activator]	-3.8%	-10.0%	8.9%
CC(C)(C)C(=O)NCCCNc1ccc([N+](=O)[O-])cc1	-4.2%	1.2%	-0.2%	9.1%	-3.8%	?	9.2%
O=C(COC(=O)c1cc2ccccc2oc1=O)Nc1ccc(F)cc1F	-14.1%	4.4%	-3.0%	9.2%	-9.6%	-15.2%	-2.6%
Cc1ccccc1OCCOCCN1CCCCCC1	-6.9%	2.6%	-7.3%	12.4%	i	-2.2%	-7.4%
CCOC(=O)C1=C(C)Nc2sc(C(=O)c3ccc(F)cc3)c(N)c2C1c1ccc(C(=O)OC)cc1 (centres undefined)	?	4.3%	-2.5%	1.8%	-15.7%	-2.1%	7.9%
OC[C@@H](O)[C@H](O)C(/C=N/Nc1ccccc1)=N\Nc1ccccc1	-13.4%	.	-4.4%	-1.9%	i	28.2µM*	-0.3%
Fc1ccc(N2CCN(Cc3ccccn3)CC2)cc1	-2.5%	3.6%	0.3%	-3.9%	i	-4.4%	5.7%
COCc1[nH]nc2c1C(c1ccnc3ccccc13)C(C#N)=C(N)O2 (centres undefined)	-4.2%	-11.7%	-2.1%	-4.5%	-4.1%	-13.8%	-15.5%
O=C(COC(=O)c1ccccc1Nc1ccccc1)NCc1ccccc1Cl	?	16.2%	-0.2%	-12.0%	-1.2%	-2.0%	-3.4%
COc1cccc(C(=O)N2CCC(N3CC(C)OC(C)C3)CC2)c1 (centres undefined)	-7.7%	-11.7%	-0.5%	-5.6%	-5.1%	-1.5%	2.6%
CC(C)(C)NC(=O)C(c1ccncc1)N(Cc1ccco1)C(=O)c1ccc(-c2ccccc2)[nH]1 (centres undefined)	-3.5%	-15.7%	-1.0%	15.6%	i	?	1.3%
O=C(Nc1nnc(-c2ccc3c(c2)CCCC3)o1)c1ccccc1	0.6%	16.9%	-2.1%	13.5%	-2.5%	?	-17.4%
COc1ccc(Br)cc1/C=C/C(=O)NCC(=O)O	?	.	-1.7%	10.5%	-2.0%	-1.7%	-0.2%
O=C(C1CCN(Cc2cccs2)CC1)N1CCN(Cc2ccc3c(c2)OCO3)CC1	-2.8%	.	-0.9%	-2.4%	-1.6%	-10.6%	-7.9%
CNCCCOc1ccc2c(c1)CCC2	5.3%	7.6%	-1.1%	6.0%	i	2.7%	-4.9%
O=C1c2ccccc2NC(c2ccc([N+](=O)[O-])cc2)N1O (centres undefined)	8.1%	-17.8%	-0.9%	-0.4%	-7.9%	-4.2%	-2.0%
CCOC(=O)c1c(NCC2CCCO2)c2ccccc2[nH]c1=O (centres undefined)	-4.2%	.	1.9%	-13.0%	-2.9%	2.2%	-20.8%
c1ccc(COc2ccc(OCCCN3CCCC3)cc2)cc1	10.2%	-7.0%	0.8%	-8.0%	i	4.5%	0.5%

Single records, from the list above.
Cc1ccccc1OCCOCCN1CCCCCC1 as listed: Tau fibril FP: -6.9%; L3MBTL1 inh: 2.6%; TexasRed fluor: -7.3%; GoLoco inh red: 12.4%; RECQ1 helicase: i; Tau fibril ThT: -2.2%; TRb-SRC2 inh: -7.4%
COc1ccc(Br)cc1/C=C/C(=O)NCC(=O)O as listed: Tau fibril FP: ?; L3MBTL1 inh: .; TexasRed fluor: -1.7%; GoLoco inh red: 10.5%; RECQ1 helicase: -2.0%; Tau fibril ThT: -1.7%; TRb-SRC2 inh: -0.2%

New compounds follow
SMILES	Tau fibril FP	L3MBTL1 inh	TexasRed fluor	GoLoco inh red	RECQ1 helicase	Tau fibril ThT	TRb-SRC2 inh
COc1ccc(OC)c(/C=N/c2c(-c3ccc(O)c(OC)c3)nc3ccccn23)c1	3.6%	.	-3.1%	9.7%	-3.9%	?	-6.5%
FC(F)(F)Oc1ccc(-c2cn3cccnc3n2)cc1	-0.5%	-15.1%	-1.2%	13.6%	18.2%	?	-10.4%
CC(=O)Nc1nc(C)c(Oc2ccc(Cl)cc2)c(=O)[nH]1	-3.2%	5.2%	-2.5%	3.4%	23.9%	-10.0%	6.2%
CCN(CC)S(=O)(=O)c1ccc(C)c(NC(=O)CN2CCN(C)CC2)c1	-5.0%	8.9%	2.3%	-2.4%	-1.7%	-8.0%	-2.9%
C=CCc1ccc(OCCCOc2ccc(C)cc2OC)c(OC)c1	1.2%	.	-0.3%	-9.2%	i	-17.7%	-22.8%
O=c1c2c(nc3c(-c4ccccc4)c[nH]n13)CCC2	9.2%	0.1%	0.3%	22.3%	-13.2%	-12.1%	-15.4%
COc1ccc(Br)cc1CN(C)CC(=O)NCCc1ccccc1	3.3%	34.1%[activator]	-0.8%	-20.9%	0.4%	-4.9%	-3.1%
CC(CCc1ccccc1)NC(=O)COC(=O)C1CCC(C(C)(C)C)CC1 (centres undefined)	2.8%	16.5%	-0.8%	5.9%	?	-17.0%	-7.6%
O=C(CN1C(=O)S/C(=C\c2ccccc2)C1=O)NNC(=O)c1ccccc1O	?	6.2%	3.4%	4.0%	i	-4.8%	3.0%
COc1ccc(-c2nnc(-c3ccc(N)cc3)o2)cc1	-4.0%	-0.1%	-6.2%	8.2%	-8.6%	?	-0.3%
COc1cccc(CNCc2cccc(Br)c2)c1OC	3.7%	6.5%	-0.7%	-4.2%	i	-3.0%	10.3%
CN(Cc1cccnc1)C(=O)CC1C(=O)NCCN1CC(c1ccccc1)c1ccccc1 (centres undefined)	4.0%	-10.5%	0.4%	13.3%	22.1%	-4.7%	-8.4%
COc1cccc(/C=N/NC(=S)NC2CC3CCC2C3)c1OC (centres undefined)	?	-7.0%	-3.2%	7.2%	-5.5%	-10.0%	6.6%
O=C(N/N=C\c1ccc(-c2cccc(Cl)c2)o1)C(=O)NC1CCCC1	0.6%	-2.3%	-1.0%	0.9%	21.9%	-10.2%	-5.8%
COC(=O)CCCC1=CC2=CC(=O)C(C)(OC(=O)c3cccs3)C(=O)C2=CN1C1CC1 (centres undefined)	6.8%[11.6 µM]	.	14.6%[11.2 µM]	-20.7%[14.2 µM]	-9.3%[11.5 µM]	2.2%[11.5 µM]	-9.7%[11.2 µM]
COc1cc(-n2c(N)c(C(=O)NCc3ccco3)c3nc4ccccc4nc32)cc(OC)c1OC	-3.2%	4.9%	-1.2%	53.6%[activator]	0.2%	?	-0.3%
COc1ccc(-c2ccc(-c3nnc(-c4cc(OC)ccc4OC)o3)cc2)cc1	3.7%	6.6%	2.7%	-3.6%	i	-10.2%	-0.4%
Cc1ncccc1C(=O)N1CCCC(C(=O)c2ccc3c4c(cccc24)CC3)C1 (centres undefined)	4.2%	-11.8%	-3.3%	16.5%	-2.5%	-15.7%	4.6%
Cc1cccc(OCCCCCNCCO)c1	3.4%	4.0%	-1.0%	1.7%	-7.7%	-5.9%	-9.4%
